PrP 5UTR inh: suppresses PrP 5' UTR mRNA reporter expression; cell-based PrP 5' UTR mRNA reporter, plate reader; inhibition, % (test concentration not listed); hit rate 0.35% among 340,000; AID 488862;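 active = every replicate at 50% or more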;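 also: 0 = median of the neutral control wells; tested in H4 reporter cells; numbers are from one replicate; inactives centre near -14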
Mtb hypoxia rep: inhibitors of hypoxia-regulated fluorescent reporter in Mycobacterium tuberculosis; AID 1159583; fluorescence inhibition, % (test concentration not listed); hit rate 0.1% among 300,000; M. tuberculosis hypoxia-regulated fluorescent reporter, fluorescence;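 active = 35 to 45% if threefold the growth effect, above 45% if 1.5-fold the growth effect; inactive = the rest, general growth blockers included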;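 also: wells of about 50 µL received 100 nL stock; 0% = vehicle wells and 100% = reference inhibitor wells; whole bacteria with a GFP reporter of the hypoxia response; strong numbers were not always called active; many hits fall short of the cut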
Bead autofluor: counter-screen for toxin protease inhibitors: compound fluorescence | compound autofluorescence counterscreen, microsphere flow cytometry; active compounds read high | hit rate 3.1% among 360,000 | AID 624483 | fluorescence intensity (no concentration beside the values);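 active = at least 3 SD above the mean of all compounds, about 16000 in these data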;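 also: 100 nL of 1 mM stock went into each well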
Sa RN4220 lethal: kills Staphylococcus aureus RN4220; S. aureus RN4220 growth, OD600, 16 h; inhibition, % (test concentration not listed); hit rate 0.33% among 330,000;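 active = z-score of -3 or lower and OD600 up to 0.18 on both plates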;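 also: plate controls were untreated cells for no effect and reference antibiotic for full effect; stock transfer was 100 nL into about 80 µL; one replicate is shown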
BJeLR lethal: BJeLR cell viability loss | BJeLR (HRASV12) viability, CellTiter-Glo ATP luminescence, 48 h; reference of the scale not given here | inhibition, % (no concentration beside the values) | hit rate 0.17% among 300,000;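 active = replicate mean above 50%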;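 also: 50 nL library stock added to about 25 µL; numbers are from one replicate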
Sa ugtP lethal: compounds lethal to S. aureus RN4220 ugtP deletion mutant; OD600 growth, 16 h; some inactives read as strong as hits; growth inhibition, % (test concentration not listed); hit rate 0.54% among 330,000; AID 1259309;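 active = z-score under -3 and OD600 up to 0.15 on both plates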;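 also: plate controls were untreated wells for no effect and antibiotic for full effect; wells of about 80 µL received 100 nL stock; the first replicate is given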
Mtb hypoxia rep growth: second read-out of Mtb hypoxia rep, no call of its own (marks repeat the call); growth inhibition, %; measured here: M. tuberculosis growth (absorbance);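 0% = vehicle and 100% = reference antibiotic; read after six days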
* = called active by the depositor; . = not tested or not shown.

SMILES	PrP 5UTR inh	Mtb hypoxia rep	Mtb hypoxia rep growth	Bead autofluor	Sa RN4220 lethal	BJeLR lethal	Sa ugtP lethal
Cc1cc(=O)n2nc(N3CCCC(C(=O)Nc4ccc(C)c(C)c4)C3)sc2n1 (configuration not stated)	-8	-8	-1	7337	2.2	6	-2
CCS(=O)(=O)n1nc(-c2ccc(OC)cc2)nc1N	-19	15	6	4786	8.0	3	17
COc1ccc(C(=O)COc2ccc3ccc(=O)oc3c2)c(OC)c1	-5	.	.	5615	2.7	0	-3
Cc1cc(C)n(C(=O)c2ccc(C)c(Br)c2)n1	-2	-5	-4	3166	0.3	5	1
COc1cccc(C2N(c3ccc(Cl)c(Cl)c3)C(=O)C3CCCN32)c1OC (configuration not stated)	-13	6	12	4672	6.6	4	0
CC(C)OP(=O)(c1ccc(N(C)C)cc1)C(Nc1ccccc1)c1ccccc1 (configuration not stated)	-4	7	-1	3379	4.3	7	5
O=C(NNC1CC(=O)N(c2ccc3c(c2)OCCO3)C1=O)c1ccccc1 (configuration not stated)	-16	8	5	8032	4.1	-2	15
CCOc1ccc(/C=N/Nc2ccc(Cl)nn2)c(O)c1	-6	.	.	6890	.	19	.
NC(=O)NN=Cc1ccccc1OCc1cccc2ccccc12	.	-5	0	.	5.6	.	-1
CC(=NNc1ccc([N+](=O)[O-])cc1)c1ccc2c(c1)OCO2	.	2	-8	.	-1.6	.	-6
CC(C)N(C(=O)CSc1nnc(-c2ccc3c(c2)OCO3)n1C)C(C)C	-24	6	12	4192	4.4	-3	4
O=C(Nc1ccccc1F)c1ccn[nH]1	-2	0	5	4291	2.5	0	6
O=C(C1CC(c2ccccc2O)=NO1)N1CCCCC1 (configuration not stated)	-109	-5	2	7579	-0.6	8	4
C=CCN(Cc1ccco1)S(=O)(=O)c1ccc(Cl)cc1	-8	5	-6	4375	3.8	-6	4
COCC(=O)n1nc(-c2ccccc2)nc1NCc1cccs1	-35	0	11	4133	10	.	9

Given with values under each structure: 4 of the compounds above
Values run as follows: PrP 5UTR inh | Mtb hypoxia rep | Mtb hypoxia rep growth | Bead autofluor | Sa RN4220 lethal | BJeLR lethal | Sa ugtP lethal
- CC(=NNc1ccc([N+](=O)[O-])cc1)c1ccc2c(c1)OCO2
 : . | 2 | -8 | . | -1.6 | . | -6
- CC(C)N(C(=O)CSc1nnc(-c2ccc3c(c2)OCO3)n1C)C(C)C
 : -24 | 6 | 12 | 4192 | 4.4 | -3 | 4
- O=C(Nc1ccccc1F)c1ccn[nH]1
 : -2 | 0 | 5 | 4291 | 2.5 | 0 | 6
- O=C(C1CC(c2ccccc2O)=NO1)N1CCCCC1 (configuration not stated)
 : -109 | -5 | 2 | 7579 | -0.6 | 8 | 4

Remaining list, next part:
SMILES	PrP 5UTR inh	Mtb hypoxia rep	Mtb hypoxia rep growth	Bead autofluor	Sa RN4220 lethal	BJeLR lethal	Sa ugtP lethal
COC(=O)/C(=C/C(=O)c1ccccc1)Nc1ccc(OC)cc1	.	10	14	.	7.7	.	21
Cc1[nH]n(-c2ccc([N+](=O)[O-])cc2)c(=O)c1C=NCCN1CCN(C(=O)c2ccc(F)cc2)CC1	0	4	9	20052*	3.1	20	-1
Cc1ccc(-c2noc(-c3ccoc3C)n2)cc1	-107	4	-6	2021	17	9	16
Clc1ccc(Cn2ncc3c(NCc4ccccc4)ncnc32)cc1	-33	.	.	4216	-12	-2	-2
N#Cc1ccccc1NS(=O)(=O)c1cc2c3c(c1)CCN3C(=O)CC2	-9	4	6	5146	15	-3	0
COc1ccc(OC)c(CN2CCN(C(=O)CCC(=O)c3cccs3)CC2)c1	-18	-9	1	5316	1.4	8	-4
CC(C)c1ccc(NC2CCCN(C(=O)c3cnc4ccccn4c3=O)C2)cc1 (configuration not stated)	-12	1	-5	6262	2.1	5	2
Cc1ccc(NC(=S)NC2CCN(Cc3ccccc3)CC2)c(C)c1	-10	-12	-16	2024	1.8	13	4
COc1ccc(CCC(=O)OCC(=O)NC(=O)c2ccc(Cl)cc2)cc1	-22	8	5	3904	2.7	.	4
COC(=O)Nc1ccc(SCC(=O)c2cccc([N+](=O)[O-])c2)cc1	-14	4	5	5333	0.8	-19	-3
CCCOc1ccc(N2C(=O)CC(S/C(N)=N/N=C(\C)c3cccs3)C2=O)cc1 (configuration not stated)	-19	.	.	9117	.	1	.
O=C(Nc1ccc(F)cc1F)N1CCCN(c2ccc(C(F)(F)F)cn2)CC1	-11	-4	5	.	2.2	11	2
O=[N+]([O-])c1ccc(-c2cnc(NO)nc2)cc1	-18	-4	2	2121	4.2	-5	-3
Cc1ccc(S(=O)(=O)CCN2CCC(n3cccc3)CC2)cc1	-10	11	-4	4336	3.9	3	5
COc1ccc(-c2noc(-c3ccoc3C)n2)cc1OC	-57	7	4	4374	5.6	6	-2

One compound at a time (already shown). Values in the order: PrP 5UTR inh, Mtb hypoxia rep, Mtb hypoxia rep growth, Bead autofluor, Sa RN4220 lethal, BJeLR lethal, Sa ugtP lethal
COc1ccc(-c2noc(-c3ccoc3C)n2)cc1OC in the list: -57, 7, 4, 4374, 5.6, 6, -2
Cc1ccc(S(=O)(=O)CCN2CCC(n3cccc3)CC2)cc1 in the list: -10, 11, -4, 4336, 3.9, 3, 5

Quoted at random: 4 compounds from above
SMILES	PrP 5UTR inh	Mtb hypoxia rep	Mtb hypoxia rep growth	Bead autofluor	Sa RN4220 lethal	BJeLR lethal	Sa ugtP lethal
Cc1[nH]n(-c2ccc([N+](=O)[O-])cc2)c(=O)c1C=NCCN1CCN(C(=O)c2ccc(F)cc2)CC1	0	4	9	20052*	3.1	20	-1
Cc1ccc(NC(=S)NC2CCN(Cc3ccccc3)CC2)c(C)c1	-10	-12	-16	2024	1.8	13	4
O=C(Nc1ccc(F)cc1F)N1CCCN(c2ccc(C(F)(F)F)cn2)CC1	-11	-4	5	.	2.2	11	2
COC(=O)/C(=C/C(=O)c1ccccc1)Nc1ccc(OC)cc1	.	10	14	.	7.7	.	21

Next compounds:
SMILES	PrP 5UTR inh	Mtb hypoxia rep	Mtb hypoxia rep growth	Bead autofluor	Sa RN4220 lethal	BJeLR lethal	Sa ugtP lethal
COc1ccc(Cn2c(O)c(/C=N/NC(=O)c3ccncc3)c(=O)[nH]c2=O)cc1	-11	4	2	.	4.7	-17	7
CCn1c(SCC(=O)N2CCCc3ccccc32)nc2ccccc2c1=O	-9	4	10	6785	4.3	-3	1
O=C(CSc1nccn1-c1ccc(F)cc1)NCc1ccc2c(c1)OCO2	-17	.	.	2237	0.9	19	-7
Cc1cc(Nc2cccc(Cl)c2)nc(N2CCOCC2)n1	-60	0	1	2202	-0.3	-12	-8
Cc1ccc(/C=C/C(=O)Nc2ccc(O)c3c(=O)cc(-c4ccccc4Cl)oc23)cc1	-24	.	.	3687	.	-26	.
CCOC(=O)c1nnn(-c2nonc2N)c1-c1ccc(OCC)cc1	-9	.	.	2053	0.1	-5	6
O=C(CCNC(=O)C1CCN(S(=O)(=O)c2ccc(F)cc2)CC1)NCCc1ccc(Cl)cc1	-24	2	5	5226	3.3	8	1
COc1ccc(NC(=O)CSc2nc3[nH]c(=O)cc(O)c3s2)cc1OC	-16	8	-5	3336	3.5	.	7
Cc1cc(C)n(-c2nc3ccccc3n3c(C)nnc23)n1	-7	-1	-1	3780	3.5	-6	9
COc1ccc(C2CC(=O)N3CN(c4ccccc4F)CSC3=C2C#N)cc1OC (configuration not stated)	-2	1	11	5866	-12	1	-10
C=CCNC(=O)CSc1nc2sccc2c(=O)n1-c1ccccc1	-15	-6	-12	5272	5.8	-13	3
CCN(CC)C(=O)COc1coc(CN2CCN(Cc3ccccc3)CC2)cc1=O	-13	8	6	5743	0.8	-3	6
COc1ccc(N2C(=O)C(OC(C)=O)C2c2ccc(C)cc2)cc1 (configuration not stated)	-19	-9	2	9761	-4.6	0	0
CC(=O)Nc1cccc(-c2nc3ccc(NC(C)=O)cc3[nH]2)c1	-8	8	7	3193	6.4	-4	0
COc1ccc(C(=O)C2CCCN(C(=O)c3ccnn3C)C2)cc1OC (configuration not stated)	7	3	3	5390	0.5	-1	6
Cc1ccccc1CN(c1ccc(C(=O)N2CCCC2)cc1)S(C)(=O)=O	3	-12	-7	12962	3.8	0	2
O=C(NCCCN1CCOCC1)c1cc2cc(Br)ccc2oc1=O	0	2	-6	3420	3.4	3	11
O=C(/C=C/C=C/c1ccccc1)c1ccco1	-28	14	17	3178	6.9	12	2
Cc1cc(Nc2ccccc2)n2nc(C)c(-c3ccccc3)c2n1	-21	4	-3	4607	1.7	-4	-8
Cc1ccc(-c2nc3ccccc3s2)cc1NC(=O)c1cc(-n2cnnc2)ccc1Cl	-61	6	-8	5469	0.8	-3	0
CCc1ccc(N2CC(C(=O)Nc3ccc(F)cc3)CC2=O)cc1 (configuration not stated)	-12	13	9	5271	1.5	-6	0
COc1cc(C=NNc2ccc(Cl)nn2)cc(OC)c1O	.	-2	3	.	0.3	.	-3
CCOC(=O)C1CCN(S(=O)(=O)CCNC(=O)c2cccc(OC)c2)CC1	-14	3	1	6524	0.0	2	8
N/C(=N\O)c1cccc(CS(=O)(=O)c2ccccn2)c1	-30	.	.	5971	.	1	.
CSCc1nc2sc(C(=O)Nc3nc(C)cs3)c(C)c2c(=O)[nH]1	-55	2	-2	5169	8.9	-4	-3
OCCC1CN(Cc2ccc3nsnc3c2)CCN1C1CCCC1 (configuration not stated)	-10	.	.	2829	.	15	.
CCOc1ccc(-c2nnc(SCC(=O)N3CCCC3)o2)cc1	-36	10	2	5215	10	-7	-3
CC(=O)Nc1ccc(S(=O)(=O)NCc2ccc(C(=O)NCc3ccc4c(c3)OCO4)cc2)cc1	-57	.	.	2665	2.3	18	1
COCCC(=O)N1CCCC(C(=O)c2ccccc2SC)C1 (configuration not stated)	-12	.	.	3918	.	-13	.
O=C(CNC(=O)c1ccccc1F)c1ccc(Br)cc1	-62	11	5	4105	0.5	-2	1
COc1ccc(C)cc1NC(=O)CNC(=O)Cn1ccc2ccccc2c1=O	-14	8	11	4413	5.3	-10	6
O=C(c1cc(-c2ccc(Cl)cc2)on1)N1CCCCCC1	-68	18	9	5022	5.2	-16	2
COC(=O)NN=Cc1cn(Cc2c(Cl)cccc2Cl)c2ccccc12	.	-5	-4	.	-1.3	.	-8
CC(CN1CCOCC1)C(=O)O (configuration not stated)	-25	.	.	2447	4.0	-13	-10
O=P(COc1ccccc1)(c1ccccc1)c1ccccc1	-13	8	19	9552	3.9	-2	-2
OC(CNCc1ccc2c(c1)OCO2)COc1ccccc1 (configuration not stated)	-16	8	5	4296	1.6	-8	5
O=C(NC(Cc1ccccc1)C(=O)OCc1ccccc1)c1nc[nH]c1C(=O)N1CCNCC1 (configuration not stated)	.	14	4	.	4.1	.	1
Cc1ccc(CCNC(=O)C2CCC(=O)N(CC3CCCCC3)C2)cc1 (configuration not stated)	11	-11	7	5587	-3.1	5	-6
COc1ccc(C(=O)Nc2ccc([N+](=O)[O-])cn2)c(OC)c1	-110	2	6	2146	2.5	1	-2
Cc1ccc(C)c(N(C(=O)c2csnn2)C(C(=O)NC2CCCCC2)c2ccncc2)c1 (configuration not stated)	-9	1	10	3676	-0.5	-8	15
Cc1ccc(CC(=O)Nc2nccs2)cc1	-27	7	6	3295	6.2	3	9
O=C(C[n+]1ccccn1)c1ccccc1	-9	10	-9	3011	-1.3	18	2
Cc1cccc(CNC(=O)C2CCCN(c3nn4c(=O)cc(C)nc4s3)C2)c1 (configuration not stated)	-23	2	-3	5830	-14	-4	1
CCN1CCN(CCNC(=O)CCCCCn2c(=O)[nH]c3cc(C(=O)OC)ccc3c2=O)CC1	6	0	0	23054*	0.9	11	4
CCOc1ccc(NC(=O)CS(=O)(=O)c2cn(C)c3ccccc23)cc1	-23	6	5	7004	15	-12	18
Cc1cc(=O)oc2cc(OCC(=O)OCC(=O)Nc3ccccc3F)ccc12	-7	13	-9	3166	5.7	-6	11
